Bioassay records (PubChem)
ALR inh = inhibitors of human ALR sulfhydryl oxidase, primary screen, biochemical, H2O2 detection, HRP-luminol luminescence, single point; AID 485317, 2010; inhibition, % (concentration not given with the values); hit rate 3.8% among 290,000; FAD-linked sulfhydryl oxidase ALR (Homo sapiens), P55789; purified ALR, DTT oxidation;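 active = mean and each replicate at 75% or more; inconclusive = only one of the two met; inactive = neither met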;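 also: stock transfer was 7.5 nL into about 7.5 µL; 0% = neutral wells and 100% = wells with inactivated enzyme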
Target sequence (P55789 whole entry, looked up): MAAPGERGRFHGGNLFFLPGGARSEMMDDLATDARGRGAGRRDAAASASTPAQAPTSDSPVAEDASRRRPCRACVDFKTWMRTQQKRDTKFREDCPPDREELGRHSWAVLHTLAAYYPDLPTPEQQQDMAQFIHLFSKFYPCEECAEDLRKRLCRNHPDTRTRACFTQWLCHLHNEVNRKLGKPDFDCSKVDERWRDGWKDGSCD
B2AR ag = beta2AR agonists driving receptor internalization, primary screen, cell-based, FAP fluorogen, flow cytometry; Beta-2 adrenergic receptor (Homo sapiens), P07550; Am2.2-beta2AR cells; reference of the scale not given here; response, % (concentration not given with the values); hit rate 0.43% among 340,000;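 active = response above a set limit, near 3 SD of response in nonfluorescent compounds, cut at about 42% in these data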;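 also: stock transfer was 100 nL into about 11 µL; a reference agonist was the positive control; negative values mostly stem from fluorescent compounds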
Target sequence (P07550 whole entry, looked up): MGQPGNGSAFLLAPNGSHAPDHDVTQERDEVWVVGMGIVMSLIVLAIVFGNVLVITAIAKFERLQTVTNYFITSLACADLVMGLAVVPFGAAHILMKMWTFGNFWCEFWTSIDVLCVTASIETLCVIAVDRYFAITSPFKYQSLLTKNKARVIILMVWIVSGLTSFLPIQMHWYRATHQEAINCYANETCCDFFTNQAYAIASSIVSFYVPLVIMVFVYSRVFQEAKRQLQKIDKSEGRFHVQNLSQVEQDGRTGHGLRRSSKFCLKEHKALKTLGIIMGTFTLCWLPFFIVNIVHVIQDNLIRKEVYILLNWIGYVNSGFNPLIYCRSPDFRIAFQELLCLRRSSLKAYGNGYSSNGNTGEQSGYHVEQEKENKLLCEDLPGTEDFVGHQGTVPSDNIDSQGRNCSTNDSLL
RanGTP-Imp inh = inhibitors of RanGTP-importin-beta interaction, primary screen, biochemical, FRET, CFP-Ran, YFP-importin-beta, homogeneous; cell-free CFP-Ran/YFP-importin-beta FRET ratio; Ran GTPase (GTP-bound) - importin-beta complex; hit rate 1.1% among 300,000; inhibition, % (no concentration beside the values); AID 2216, 2009;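 active = most replicates above 15%; inconclusive = exactly half above 15%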;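 also: 0% = DMSO wells and 100% = Ran loaded with GDP instead of GTP; wells of about 40 µL received 100 nL stock; the first replicate is given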
HNF4A DNA FP = change in binding of human HNF4A to DNA, primary screen, biochemical, fluorescence polarization, FITC-DNA; Hepatocyte nuclear factor 4-alpha (Homo sapiens), P41235; 1 h; activity change, % at 10 µM; hit rate 0.3% among 360,000; in the data active = activity change above about 30%, passing the limit was not always enough;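 also: controls were the assay level and a saturating level of protein; the project sought stronger binding though the title names inhibitors; some compounds called inactive have numbers as strong as hits; positive values seem to mean higher polarization but the record does not say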
Target sequence (P41235 whole entry, looked up): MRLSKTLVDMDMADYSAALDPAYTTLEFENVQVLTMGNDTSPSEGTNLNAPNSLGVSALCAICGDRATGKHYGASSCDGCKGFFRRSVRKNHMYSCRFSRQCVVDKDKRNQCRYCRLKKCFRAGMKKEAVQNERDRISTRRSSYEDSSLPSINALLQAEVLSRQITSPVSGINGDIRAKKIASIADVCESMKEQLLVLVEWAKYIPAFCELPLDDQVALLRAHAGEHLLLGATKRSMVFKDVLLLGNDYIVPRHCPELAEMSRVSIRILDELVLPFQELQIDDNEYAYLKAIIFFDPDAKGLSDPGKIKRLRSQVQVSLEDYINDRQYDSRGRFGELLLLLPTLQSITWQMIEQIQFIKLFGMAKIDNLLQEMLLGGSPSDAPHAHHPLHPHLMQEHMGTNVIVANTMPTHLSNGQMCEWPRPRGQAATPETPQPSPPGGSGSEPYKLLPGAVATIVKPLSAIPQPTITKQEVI
Vif A3G = inhibitors of Vif binding to APOBEC3G peptide, primary screen, biochemical, TR-FRET, GST-Vif 1-94, biotin-A3G peptide, dose response retest (AID 1117319); TR-FRET GST-Vif / biotin-A3G peptide binding; higher % means a stronger effect; test concentration not given here; strong numbers were not always called active; inhibition, %; hits with a dose series show IC50 in µM; hit rate 0.57% among 260,000;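 active = above the screen mean plus three standard deviations and confirmed in dose response; inconclusive = results disagree or hit not tested in dose response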;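 also: Vif residues 1-94 fused to GST binding biotinylated APOBEC3G peptide 110-148; 0% = full assay without inhibitor and 100% = GST in place of GST-Vif; retest series ran down from 100 µM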
LANA-H2B inh = blockers of LANA interaction with H2A/H2B – biochemical, FP readout, HTS, primary screen. Protein LANA1 (Human herpesvirus 8 type P (isolate GK18)), Q9QR71. cell-free LANA-H2A/H2B peptide, fluorescence polarization. inhibition, % (concentration not given with the values). hit rate 0.6% among 320,000. AID 2629, 2010; in the data active = inhibition mostly above about 10%, no sharp cut-off; inactive = mostly below about 6.7%;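 also: stock transfer was 7.5 nL into about 10 µL; 0% = median of vehicle wells and 100% = median of positive control wells; one replicate is shown; the record names a cut of 25% in any replicate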
Calb FLC = C. albicans growth inhibition with fluconazole, primary screen, CaCi-2 strain, Alamar Blue fluorescence; C. albicans CaCi-2 (fluconazole-resistant clinical isolate) + fluconazole, 48 h; growth inhibition, % (concentration not given with the values); hit rate 0.57% among 300,000; AID 1979, 2009;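 active = most replicates above 75%; inconclusive = exactly half above 75%; inactive = most below 75%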;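 also: all wells also contain fluconazole at 8 µg/ml as a sub-toxic cotreatment; 0% = median of DMSO wells and 100% = median of geldanamycin control wells; wells of about 8 µL received 7.5 nL stock; the first replicate is given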
The depositor's hits bear a star; ? = inconclusive; / = not tested or not shown; & = joins results of further samples.

SMILES | ALR inh | B2AR ag | RanGTP-Imp inh | HNF4A DNA FP | Vif A3G | LANA-H2B inh | Calb FLC
Cc1ccccc1Oc1ccc2c(c1)[C@@H]1C[C@H]3[C@@H](C(=O)N1CC2)[C@H](C)ON3C | / | 7 | / | 6.0 | 1% | / | /
COc1ccccc1N1CCN(C(=O)CSc2nc(C)c(C)c(=O)[nH]2)CC1 | 16 | 1 | ? | -3.2 | / | 3.2 | -8
O=C(CCc1ccc(O)c(O)c1)NNC(=S)NCCc1ccccc1 | 99* | 1 | 0.8 | -3.2 | 30% | -3.8 | 5
Clc1ccc(-n2ncc3c(NCC4CCCO4)ncnc32)cc1 (configuration not stated) | / | 5 | 2.7 | -0.9 | 1% | 1.2 | 18
CC(=O)N1CCc2cc(S(=O)(=O)NC(CC(C)C)C(=O)N3CCCC3)ccc21 (configuration not stated) | 1 | -9 | -1.9 | 0.2 | / | 2.5 | -1
COc1cccc(NC(=S)N(CCC(C)C)C2CCN(C(C)=O)CC2)c1 | 3 | 3 | 2.8 | 2.4 | 3% | -4.9 | -1
CC(C)Cc1ccc(C(C)C(=O)OCC(=O)c2c[nH]c3ccccc23)cc1 (configuration not stated) | -8 | -5 | -3.0 | -1.1 | 7% | -0.1 | -21
COc1cccc(C(=O)N2N=C(c3ccccn3)CC2(O)C(F)(F)F)c1 (configuration not stated) | -4 | -11 | -0.8 | -1.0 | 9% | 5.2 | -5
CCC(C)NS(=O)(=O)c1ccc(S(=O)(=O)N(CC(=O)Nc2ccccc2)Cc2ccco2)cc1 (configuration not stated) | -2 | 0 | 1.5 | 4.3 | 8% | -4.6 | 9
CC(=O)NS(=O)(=O)c1ccc(N=NN2CCCCC2)cc1 | 3 | -2 | -0.2 | -0.1 | / | 0.8 | -18
CCc1cccc(OCC(=O)N(C)CC(=O)Nc2cccc(F)c2)c1 | -5 | -5 | 2.3 | -0.4 | 5% | -3.7 | 2
Cc1nc2ccc(NC(=O)N3CCCCC3)cc2nc1C | -21 | -7 | -15 | -1.4 | 1% | -2.6 | -1
Cc1cccc(N2C(=O)CN(Cc3sccc3C)C2=S)c1 | -4 | 9 | -2.8 | -0.1 | / | 1.9 | -22
Cc1sc2nc(CC(=O)N3CCCC3)[nH]c(=O)c2c1C | -12 | -8 | -4.1 | -2.1 | -2% | 0.8 | -4
O=c1cc(CNc2cc(Cl)ccc2Cl)nc2sccn12 | -7 | -12 | -3.5 | -2.7 | 7% | 0.4 | -2
O=C(CSc1ccc(F)cc1)Nc1ccc(N2CCOCC2)cc1 | 45 | 2 | 3.1 | 0.0 | / | 3.3 | 1
CC(C)(C)OC(=O)NCCCCCNC(=O)c1[nH]cnc1C(=O)Nc1nccs1 | -7 | -2 | / | 0.3 | / | -3.9 | /
O=c1c2c(nc3cc(-c4cccc(Cl)c4)[nH]n13)CCC2 | 0 | -8 | -2.2 | -0.2 | ? | -1.2 | 4
COc1ccc(CN2C(=O)CC(C(=O)NCCc3ccc(S(N)(=O)=O)cc3)SC2=Nc2ccccc2)cc1 (configuration not stated) | 0 | -4 | -1.4 | -3.4 | 10% | -1.0 | -4
CCOc1ccc(NC(=O)[C@H](C)NC(=O)C2CC(=O)N(c3ccc(OC)cc3)C2)cc1 (some centres not stated) | -8 | 3 | 2.7 | 3.0 | / | 3.5 | 0

Compound profiles, as listed above. Values in the order: ALR inh, B2AR ag, RanGTP-Imp inh, HNF4A DNA FP, Vif A3G, LANA-H2B inh, Calb FLC
Profile of CC(C)(C)OC(=O)NCCCCCNC(=O)c1[nH]cnc1C(=O)Nc1nccs1 : -7, -2, /, 0.3, /, -3.9, /
Profile of COc1cccc(C(=O)N2N=C(c3ccccn3)CC2(O)C(F)(F)F)c1 (configuration not stated) : -4, -11, -0.8, -1.0, 9%, 5.2, -5
Profile of COc1ccccc1N1CCN(C(=O)CSc2nc(C)c(C)c(=O)[nH]2)CC1 : 16, 1, ?, -3.2, /, 3.2, -8

Following part:
SMILES | ALR inh | B2AR ag | RanGTP-Imp inh | HNF4A DNA FP | Vif A3G | LANA-H2B inh | Calb FLC
O=C(COC(=O)CCCNC(=O)c1ccc(Cl)cc1)Nc1cc(Cl)c(Cl)cc1Cl | -16 | -3 | 5.8 | -2.5 | 31% | -3.8 | -3
CCOC(=O)C1=C(C)Nc2ncnn2C1c1cccs1 (configuration not stated) | 10 | 5 | -1.1 | 1.6 | 0% | -3.2 | 37
COC(=O)c1ccc(/C=N/n2c(C)nc3ccccc3c2=O)cc1 | 1 | 6 | -2.0 | 3.9 | -2% | 2.2 | 4
CCC(C)(C)C(=O)Nc1cccc(Cl)c1C | 4 | -4 | 5.0 | -3.6 | 2% | 2.4 | -2
COn1c(C)c(C(C)=O)c2c3nonc3ccc21 | / | 0 | 4.5 | -0.1 | 5% | -6.0 | 5
COc1ccc(C(=O)Nc2nc3ccccc3[nH]2)cc1S(=O)(=O)N1CCOCC1 | -4 | -17 | ? | 2.1 | -9% | 3.0 | 37
CC(=O)c1cccc(NC(=O)CN(C)S(=O)(=O)c2ccc3c(c2)CCC(=O)N3)c1 | 35 | -2 | 4.1 | 0.7 | / | -4.2 | 1
O=C(N/C(=C/c1cccnc1)C(=O)N1CCCCCC1)c1ccccc1 | 2 | 2 | -0.9 | -1.6 | / | 1.9 | -1
O=C(COC(=O)c1ccc(O)cc1)NC1CCCCCC1 | 7 | -6 | / | 1.2 | / | 2.5 | /
O=S(=O)(CCN1CCN(c2ccccc2O)CC1)c1cc(Cl)ccc1Cl | / | -8 | / | 2.2 | 3% | / | /
CCCOC(=O)NC1C(NC(=O)OCCC)N(C)C(=O)N1C (configuration not stated) | 5 | -4 | -2.6 | 2.3 | 3% | -1.5 | -11
COc1ccccc1N1CCN(CC(=O)c2c(C)[nH]c3ccccc23)CC1 | -2 | 8 | 2.8 | 2.2 | 2% | -2.0 | -11
O=C1CC(N2CCOCC2)C(=O)N1CCc1ccccc1 (configuration not stated) | -13 | 7 | -3.8 | 3.0 | 2% | -1.7 | -3
CCOc1cc(/C=C2/COc3ccccc3C2=O)ccc1OCC(=O)N(C)C | / | 13 | / | -1.1 | 2% | / | /
Cc1ccc(NC(=O)COC(=O)Cc2ccsc2)cc1S(=O)(=O)N1CCOCC1 | -6 | 0 | 2.1 | -1.9 | 24% | -2.0 | 11
COc1ccc(OC)c(Nc2nc(-c3sc(C)nc3C)cs2)c1 | -3 | 10 | -3.1 | -2.2 | ? | -3.1 | 8
CC(NC(=O)c1cc2cc(F)ccc2[nH]1)c1ccccc1 (configuration not stated) | / | 0 | -5.9 | -1.4 | -10% | 4.4 | 8
CCOC(=O)c1nn(-c2ccc(Br)cc2)cc1C(=O)c1cccc2ccccc12 | -5 | -2 | 0.4 | -2.1 | -9% | 0.5 | 10
C/C(=N\O)c1ccc(N2C(=O)C3CC=C(Cl)CC3C2=O)cc1 (configuration not stated) | 45 | 12 | -2.9 | -0.2 | 10% | 0.9 | -9
COc1cccc(NC(=O)CCC(=O)NCc2ccco2)c1 | / | -5 | 1.4 | -1.6 | -9% | -1.4 | -5
CCc1ccc(-n2c(Cn3nc(C(F)(F)F)cc3C)n[nH]c2=S)cc1 | 4 | 0 | ? | -0.9 | -1% | 2.9 | -17
CCCC(=O)Oc1ccccc1C1SCc2cc(C)c(C)cc2CS1 | -1 | 1 | 3.4 | -3.4 | 28% | -2.5 | -5
CCOc1ccccc1/C=C(\C(=O)O)c1ccc(S(=O)(=O)N2CCCCC2)s1 | / | 15 | / | 2.5 | / | 1.8 | /
COc1ccc(C)cc1NC(=O)C(Sc1ccccc1)c1ccccc1 (configuration not stated) | -17 | / | 0.5 | / | / | -4.3 | 2
Cc1oc(-c2cccc(C(F)(F)F)c2)nc1CN1CCOCC1 | / | -3 | -9.7 | -1.1 | -8% | 2.4 | -24
Cn1cnnc1SCC(=O)c1ccc(OC(F)F)cc1 | 32 | 5 | 5.6 | -1.9 | 16% | 0.4 | 9
COc1ccc(NC(=O)c2cc(=O)[nH]c(=O)[nH]2)cc1S(=O)(=O)Nc1ccccc1Cl | 10 | 4 | -6.1 | -0.9 | -5% | 8.3 | -2
COCCn1c(C)cc(C(=O)COC(=O)c2ccc(NC(=O)CC#N)cc2)c1C | / | -1 | -3.8 | 12 | 3% | -3.5 | -3
Cc1c(Cc2ccccc2)c(=O)oc2cc(OC(=O)c3ccccc3)ccc12 | / | 2 | -0.5 | -0.6 | -3% | -3.5 | -5
CC1(C(=O)O)CCC(C(=O)Nc2ccc(OC(F)(F)Cl)cc2)C1(C)C (configuration not stated) | -3 | -2 | -0.6 | -2.9 | -2% | -3.4 | -4
Cc1c(CCOC(=O)CC23CC4CC(CC(C4)C2)C3)sc[n+]1CC(=O)c1ccccc1 | 29 | 21 | -2.7 | -2.6 | / | -3.6 | 56
O=C1CC2CCCN2C=C1I (configuration not stated) | -11 | 4 | / | -0.3 | / | 1.8 | /
CCCc1nnc(NC(=S)Nc2ccccc2)s1 | 0 | 20 | -2.3 | 3.2 | -40% | 6.2 | 77*
COc1ccc(NS(=O)(=O)c2ccc(NC(=O)C3CCCO3)cc2)cc1 (configuration not stated) | -3 | 9 | -0.7 | -0.8 | 4% | 0.7 | -6
Cc1ccc(Nc2ncnc3sc(C)c(C)c23)cc1C | -1 | -1 | 0.5 | 2.2 | -17% | -7.4 | -18
Cn1c(=O)[nH]c(=O)c2c1nc(Br)n2Cc1ccccc1F | 0 | 2 | 0.6 | -1.2 | 2% | 3.9 | -3
COc1ccc(C(C)NC(=O)C2CCCO2)cc1OC (configuration not stated) | / | 0 | 0.5 | 1.9 | 2% | -4.8 | 9
CCN(Cc1ccccc1)C(=O)COC(=O)c1n[nH]c2ccccc12 | 2 | -6 | / | 0.0 | -11% | -1.4 | /
Fc1ccc(NC(=S)NCCc2ccccc2)c(F)c1F | 2 | -2 | -1.7 | -0.5 | 1% | 0.8 | -10
O=C(c1ccc(F)cc1Cl)N(Cc1ccco1)C1CCS(=O)(=O)C1 (configuration not stated) | / | -5 | / | -4.3 | -13% | / | /
CCOc1ccc(S(=O)(=O)Nc2ccc3c(c2)c2c(n3S(=O)(=O)c3ccc(OCC)cc3)CCCC2=O)cc1 | -1 | / | -0.2 | / | ? | 1.1 | -3
CN(CCOc1ccccc1)CC(=O)Nc1ccc(Cl)cc1[N+](=O)[O-] | / | 4 | 35* | 0.5 | / | / | -3
C=CCNC(=O)/C(C#N)=C\c1cc(Cl)c(O)c(OCC)c1 | 28 | 1 | 4.4 | 4.5 | ? | -2.0 | 41
CCN(CC)CCN(C(=O)c1cc(Cl)sc1Cl)c1nc2cc3c(cc2s1)OCO3 | 18 | -6 | 1.8 | 3.3 | 0% | 2.2 | 1
Cc1cc2cc(CN(CCN3CCOCC3)C(=O)Nc3ccccc3F)c(=O)[nH]c2cc1C | / | 6 | 2.7 | 3.6 | 14%&-18% | 1.3 | -8
Cc1cccc(OCC(O)Cn2c(=N)n(Cc3ccccc3)c3ccccc32)c1 (configuration not stated) | -14 | 8 | 4.6 | 1.1 | 0% | -3.0 | 0
Cc1cc(-c2ccccc2C(=O)Nc2ccccc2O)on1 | 48 | 14 | 3.9 | 6.9 | / | -0.9 | 1
Cc1ccc(OCc2nnc(SCC(=O)O)n2N)cc1 | / | -2 | -0.8 | -2.8 | 9% | 0.1 | -5
N#Cc1c(N)n(CCOC(=O)c2ccc(Cl)cc2)c2nc3ccccc3nc12 | / | 4 | 40* | 6.8 | 14% | / | 4
